Bioassay records as filed in PubChem.
Sa growth inh = inhibitors of Staphylococcus aureus growth at 42 °C; relative growth, % (no concentration beside the values); 0.53% of 170,000 active; AID 720641; S. aureus RN4220 growth, OD600, 20 h; hits give low values;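 active = growth at 42 °C up to 50% and 20 or more points under that at 30 °C, or under 10% at both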;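 also: 300 nL library stock went into each well; scaled to the means of positive and negative controls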
GIV-Gai inh = GIV-Galpha-i interaction inhibition; Galpha-i3/FITC-GIV peptide fluorescence polarization, 90 min; hits give low values; scaled: aluminum fluoride 0%, vehicle 100%; percent of control (FP), % (test concentration not listed); 0.42% of 210,000 active;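 active = replicate mean at 85% of control or lower, very high polarization wells dropped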;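 also: wells of about 15 µL received 100 nL stock; the first replicate is given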
Target sequence (P08753 whole entry, looked up): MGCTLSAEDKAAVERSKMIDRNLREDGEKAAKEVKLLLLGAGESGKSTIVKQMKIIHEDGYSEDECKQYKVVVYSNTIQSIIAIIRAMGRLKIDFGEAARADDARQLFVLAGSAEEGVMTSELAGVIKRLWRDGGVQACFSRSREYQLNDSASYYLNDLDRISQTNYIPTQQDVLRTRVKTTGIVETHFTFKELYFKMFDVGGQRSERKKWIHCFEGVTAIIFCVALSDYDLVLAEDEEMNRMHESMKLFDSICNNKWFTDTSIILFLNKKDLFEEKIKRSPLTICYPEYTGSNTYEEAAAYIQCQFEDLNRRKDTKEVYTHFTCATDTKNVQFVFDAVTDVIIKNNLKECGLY
HCMV UL50-53 inh = disrupts HCMV UL50-UL53 complex binding; HTRF UL50-UL53 interaction, normalized percent inhibition; inhibition, % (concentration not given with the values); 0.15% of 190,000 active; AID 1918969;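 active = both replicates at 50% or more, plus weaker picks with an unusually low signal ratio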;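 also: stock transfer was 100 nL into about 20 µL; 0% = negative control wells and 100% = wells with untagged competitor protein; inactives centre near -12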
Sa growth inh second temp = recorded beside Sa growth inh, whose call it bears; relative growth, %; measured here: growth at 30 °C;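 optical density after 20 h as mean of two plates; 100% = untreated growth and lower means inhibition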
Numbers without * were called inactive; . = not tested or not shown; & = joins results of further samples.

SMILES	Sa growth inh	Sa growth inh second temp	GIV-Gai inh	HCMV UL50-53 inh
Cn1c(=O)cc(N2CCCCC2)c2c(=O)n(-c3ccccc3)c(=O)n(-c3ccccc3)c21	96	90	104	-16
Cc1nc(-c2cccc(NC(=O)C3CC(=O)N(c4ccccc4)C3)c2)no1 (stereo unspecified)	.	.	102	-2
NC(=O)CSc1nc2cc(S(=O)(=O)Nc3cccc(Cl)c3)ccc2o1	103	91	.	-8
Cc1ccc(C)n1-c1nc(SCCCC(=O)O)n[nH]1	86	84	104	-12
CCOC(=O)C1CCCN(C(=O)c2nn(-c3ccc(C)cc3)c(=O)n(C)c2=O)C1 (stereo unspecified)	105	92	102	.
Cc1cccc2sc(N(CCN(C)C)C(=O)c3ccc4ncsc4c3)nc12	94	78	104	.
Sc1sccc1C=NC1CCCCC1	98	57	110	-21
Cn1nnnc1SCCNCc1ccc2c(c1)OCCO2	.	.	100	-5
O=S(=O)(Nc1nc2n(n1)C(c1ccc(F)cc1)C=C(c1ccc(Cl)cc1)N2)c1ccccc1 (stereo unspecified)	88	85	113&109	-31&11
O=C1CCC/C1=C/c1ccccc1	96	61	.	-40
COC(=O)c1ccc(CSc2ccc3nnc(-c4ccccn4)n3n2)o1	90	87	102	-1
CCOCCC(=O)Nc1cc(C)cc(C)c1	127	102	107	-3
CN1CCCN(c2cc(C(=O)O)c3cc(NC(=O)c4ccccc4Cl)ccc3n2)CC1	.	.	106	-47
O=C(Nc1ccccc1)Nc1ccc(Nc2ccccc2)cc1	96	90	.	-8
COCC(=O)NC1CCN(Cc2nnnn2Cc2ccc3c(c2)OCO3)CC1	81	78	102	-2
O=C(c1ccccc1Cl)n1cc(Cl)cn1	117	90	93	-8
CCNC(=O)C1CCN(C2=NS(=O)(=O)C(c3ccc(C)cc3)=C2CC)CC1	107	96	100	-24
COC(=O)c1sc2nc(-c3ccccc3)cc(-c3ccc(OC)cc3)c2c1N	.	.	101	-7
O=C(NC1CC2CCC(C1)N2Cc1nnnn1Cc1ccco1)NC12CC3CC(CC(C3)C1)C2 (stereo unspecified)	110	77	98	3
CN(C)c1nc(Nc2ccc(OC(F)(F)F)cc2)nc(NC(C)(C)C)n1	80	100	.	4
CC(=O)Nc1ccc(S(=O)(=O)N2CCC(N(C)C(C)C)CC2)cc1	103	90	104	-12
O=C(NC1CCSc2ccccc21)c1ccccc1 (stereo unspecified)	91	91	.	-39
CC(C)N(CCO)S(=O)(=O)c1ccc(N)cc1	102	100	100	1
COC(=O)c1ccc(NC(=O)NCc2cccn2Cc2cccc(C)c2)cc1	.	.	100	-22
Cc1cccc(CCNC(=O)c2nc(-c3ccc(Cl)cc3)n3c2CCCCC3)c1	108	85	107	.

Next entries:
SMILES	Sa growth inh	Sa growth inh second temp	GIV-Gai inh	HCMV UL50-53 inh
Cn1c(=O)c2c(-c3ccccc3)n(C(CO)(CO)CO)cc2n(C)c1=O	88	103	109	-3
CSC(=CC(=O)c1sc(-c2cccs2)nc1C)SC	88	95	101	5
O=C(NC1=NCCS1)Nc1ccc2snnc2c1	91	90	102	.
Cc1ccccc1CN1C(=O)C(O)(CC(=O)c2ccccc2O)c2ccccc21 (stereo unspecified)	99	80	.	-30
CCn1c(SC)nnc1C1CCCN1CC(=O)N1CCN(Cc2ccc3c(c2)OCO3)CC1 (stereo unspecified)	100	84	99	-6
Cn1c(=O)c(N2CCCC(C(=O)NCCc3c[nH]c4ccc(Cl)cc34)C2)nc2cccnc21 (stereo unspecified)	.	.	108	-49
CC(C)(c1ccccc1)n1nnc(-c2ccccc2)n1	114	101	101	-15
Cc1ccc2cc(CN(C(=O)c3cccc(Cl)c3)C(C)C)c(=O)[nH]c2c1	89	84	118	.
CC1(C)C2CC=C(/C=N/N3C(=O)NC4(CCCCC4)C3=O)C1C2 (stereo unspecified)	90	89	.	-19
CCC(C(=O)NCCc1ccc(SC)cc1)n1nc(C)c2sc3ccccc3c2c1=O (stereo unspecified)	94	87	104	-16
Cc1c(NC(=O)Nc2ccc(Br)cc2F)sc2nc3n(c(=O)c12)CCC(C)CC3 (stereo unspecified)	106	85	96	-15
Cc1cccc2c1-c1sc(C(=O)NCCCN3CCN(c4cccc(Cl)c4)CC3)cc1CO2	102	101	110	0
COc1ccc(N2CC(NC(=O)COc3ccc(F)cc3)CC2=O)cc1OC (stereo unspecified)	106	87	103	.
CN=C1S/C(=C/c2cccn2-c2ccc(N(C)C)cc2)C(=O)N1C	95	83	113	.
CC(=O)N1CCc2cc(CNC(=O)Nc3ccccc3C(F)(F)F)ccc21	86	82	98	.
CCCOc1ccc(-c2nonc2NC(=O)c2cc(OC)c(OC)c(OC)c2)cc1OCCC	95	94	104	22
CCCCCCCn1c(SC(C)C)nc2c1c(=O)[nH]c(=O)n2C	.	.	102	6
N#Cc1ccsc1NC(=O)c1cccnc1N1CCCC1	84	95	.	-10
O=C(NCc1cccs1)c1cc2c(s1)CS(=O)(=O)C2	100	92	105	9
COc1ccc(/C=C\c2onc(C)c2S(=O)(=O)N2CCC(C(=O)Nc3cccc(C)c3)CC2)cc1	.	.	104	0
CCCCC(=O)OCc1cc(=O)n2nc(C3CCCCC3)sc2n1	95	101	115	.
CCn1nc(C)cc1-c1nnc(-c2ccc(C(F)(F)F)cc2)o1	103	88	103	5
N=C1C(c2ccccc2)=C(O)CN1c1ccccc1	97	104	103	-19
CN1CCCN(C(=O)C2CCN(S(=O)(=O)c3cccs3)CC2)c2nc3ccccc3nc21	77	96	.	-33
O=C(CCC1N=C2c3ccccc3N=C(SCc3ccc(F)cc3)N2C1=O)NCc1ccc(F)cc1 (stereo unspecified)	116	93	96	.

5 entries from above, reformatted.
Each structure is followed by: Sa growth inh | Sa growth inh second temp | GIV-Gai inh | HCMV UL50-53 inh
O=C(NC1=NCCS1)Nc1ccc2snnc2c1
→ 91 | 90 | 102 | .
Cc1ccccc1CN1C(=O)C(O)(CC(=O)c2ccccc2O)c2ccccc21 (stereo unspecified)
→ 99 | 80 | . | -30
CCn1c(SC)nnc1C1CCCN1CC(=O)N1CCN(Cc2ccc3c(c2)OCO3)CC1 (stereo unspecified)
→ 100 | 84 | 99 | -6
Cn1c(=O)c(N2CCCC(C(=O)NCCc3c[nH]c4ccc(Cl)cc34)C2)nc2cccnc21 (stereo unspecified)
→ . | . | 108 | -49
CC(C)(c1ccccc1)n1nnc(-c2ccccc2)n1
→ 114 | 101 | 101 | -15

(further entries)
SMILES	Sa growth inh	Sa growth inh second temp	GIV-Gai inh	HCMV UL50-53 inh
CCc1cccc(-n2nnc(-c3nsc(NC(=O)c4ccccc4)n3)c2C)c1	95	82	104	-26
CC(=O)OCC(=O)Nc1cc(Cl)cc(Cl)c1	92	87	.	-11
Cc1ccc(C(=O)CNc2ccccc2)cc1	90	92	.	-5
CCSC1=C(C#N)C(c2ccccc2)C(C(=O)Nc2ccccc2)=C(C)N1 (stereo unspecified)	64	50	101	-13
Cc1nc2cc(NC(=O)c3ccc(S(=O)(=O)N(C)Cc4ccccc4)cc3)ccc2s1	93	68	96	.
CCN(CC)C(=O)Cn1cc(SCC(=O)Nc2cccc(C)c2)c2ccccc21	109	89	105	.
Cc1cc(C)c(S)c(C)c1	79	89	.	-8
CCCN(CCC)CCCNC(=O)Cn1ncc2c3ccccc3n(Cc3ccccc3)c2c1=O	101	92	108	-8
Cn1c(C(=O)Nc2ccc3c(c2)NC(=O)CC3)cc(=O)n(C)c1=O	91	84	102	-18
CCCC(=O)NC1CCS(=O)(=O)C1 (stereo unspecified)	96	87	96	-30
CC(=O)c1ccc(NC(=O)Cn2nc(N3CCN(c4ccccc4)CC3)ccc2=O)cc1	78	82	104	.
CCCCn1c(O)c(C2=NN(C(=O)CC)C(c3ccc(Br)cc3)C2)c(=O)[nH]c1=S (stereo unspecified)	.	.	97	-27
CN(C)S(=O)(=O)c1ccc(NCC(=O)N2CCN(c3ccccc3)CC2)cc1	95	94	.	-10
Cc1ccc2cc3cc(C(=O)N4CCN(c5ccccc5)CC4)oc3nc2c1	94	84	109	.
CCOC(=O)C1CCCC(C)N1 (stereo unspecified)	87	95	96	-4
O=c1cc(CSc2ncccn2)nc2ccc(Br)cn12	101	96	.	-76
O=C(CSc1n[nH]c(=O)n1C1Cc2ccccc2C1)c1ccc2c(c1)OCCO2	107	103	101	9
CCOC(=O)c1c(C)n(C)c2ccc(OC(=O)c3cccc(Br)c3)cc12	.	.	102	5
CCOc1ccccc1NC(=O)CSc1nnc(N)s1	92	99	97	9
CNc1oc(/C=C/c2cc(OC)c(OC)c(OC)c2)nc1C#N	109	79	104	-44
CCNC(=O)C1CCCN(S(=O)(=O)c2cn(CC)cn2)C1 (stereo unspecified)	.	.	104	-6
NC(=O)c1c(-c2ccccc2)nc2n1CCS2(=O)=O	.	.	102	9
Cc1cccc(NC(=O)N2CCC(CN3CCC(C)CC3)CC2)c1C	118	101	110	.
COc1cccc(OCc2nn3c(CSc4ccccc4)nnc3s2)c1	.	.	111	-13
CCC1=Nc2cc(C(=O)NCCc3ccc(OC)c(OC)c3)ccc2Sc2ccccc21	106	74	109	-19

(list continues)
SMILES	Sa growth inh	Sa growth inh second temp	GIV-Gai inh	HCMV UL50-53 inh
CCC(C)NC(=O)c1c(C)nn(CC(C)C)c1Cl (stereo unspecified)	91	92	.	-12
COc1cccc(C(=O)Oc2c(Sc3ccc(C)cc3)c(C)nn2C(C)(C)C)c1OC	118	94	98	-4
O=C(NCc1ccncc1)C1CC(=O)N(CCc2c[nH]c3ccc(F)cc23)C1 (stereo unspecified)	.	.	103	-1
Cc1cc2nc3s/c(=C/c4ccc(N5CCC(C)CC5)c([N+](=O)[O-])c4)c(=O)n3c2cc1C	.	.	105	-1
O=C(O)CSCC(=O)NC1CCCc2ccccc21 (stereo unspecified)	121	88	.	-24
COC(=O)c1sc2c(C)cc(Cl)c(C)c2c1C(=O)Oc1ccccc1	87	87	105	-39
CCOC(=O)c1c(S(=O)(=O)NCC(=O)NCc2ccc(C)cc2)c(C)n(C)c1C	102	94	103	.
CCN1C(=O)c2ccccc2S(=O)(=O)c2ccc(C(=O)N3CCC(C)CC3)cc21	.	.	102	-19
O=C(CCN1C(=O)CSC1=O)Nc1ccccc1	114	104	97	19
Cc1ccc(/C(C#N)=C\c2ccco2)cc1	42*	64*	108	-17
Cn1c(=O)c2c(ncn2CC(O)CO)n(C)c1=O (stereo unspecified)	96	85	.	-16&-12&-11
CCOC(=O)c1c(NC(=O)COc2cc(C)ccc2C(C)C)sc(C)c1C	100	83	108	-53
Cc1ccc(C(=O)NNc2nc(Nc3ccccc3)nc(N3CCCC3)n2)cc1	89	81	105	-27
NC(=O)N/N=C1\c2ccccc2-c2c(C(N)=O)cccc21	108	92	118	-51
O=C(Cc1ccccc1)ON=C1C=CC(=NOC(=O)c2ccco2)C=C1	117	31	98	-9
Cc1nc(-n2nc(C)c(Cc3ccccc3)c2C)sc1C(=O)N1CCN(C)CC1	.	.	106	12
O=C(NCc1cccnc1)c1cc(=O)nc2sc(N3CCCCC3)nn12	.	.	98	-29
COCCn1c(SCC(=O)Nc2cc(Cl)ccc2OC)nc2c([nH]c3ccccc32)c1=O	118	92	111	.
Cc1cccc(-c2nccc(Nc3ccc(C(=O)N4CCN(Cc5ccccc5)CC4)cc3)n2)c1	.	.	105	-13
CCN(CC)S(=O)(=O)c1cccc(-c2[nH]c3ccccc3[n+]2-c2ccccn2)c1	114	96	.	-19
CCCNC(=O)CCc1c(C)nc2c(c1C)c(=O)n(C)c(=O)n2C	86	96	109	.
COc1cc(/C=C2/C(=O)N(c3ccc(F)cc3)N=C2C)ccc1OCc1ccc(F)cc1	.	.	104	16
COc1ccccc1NC(=O)c1c(NCc2cccs2)sc2c1CCCCC2	86	66	129	.
O=c1cc(NCCCO)c2ccccc2o1	92	88	106	-1
CCCCn1nnnc1COC(=O)c1c2c(nc3ccccc13)CCCCC2	108	94	.	-21

Additional records
SMILES	Sa growth inh	Sa growth inh second temp	GIV-Gai inh	HCMV UL50-53 inh
CCCNC(=O)C1CN(S(=O)(=O)c2ccc(Cl)s2)c2ccccc2O1 (stereo unspecified)	111	99	.	-4
O=C(Nc1ccc(C(F)(F)F)cc1)N1CCC(C(F)(F)F)CC1	100	93	103	.
O=C(Nc1ccccc1F)C(c1ccccc1)N1Cc2ccccc2C1=O (stereo unspecified)	126	106	112	.
O=C(/C=C/c1ccc2c(c1)OCO2)Oc1ccc2c(c1)OCO2	114	91	.	-3
CC(c1ccco1)N(Cc1ccco1)C(=O)Nc1ccccc1 (stereo unspecified)	103	104	100	4
CCOCCc1nn2c(=O)cc(COC(=O)c3cccs3)nc2s1	102	101	109	.
CC(C)c1nnc2sc(COc3ccc(Br)cc3)nn12	.	.	103	-13
CN(CC(=O)Nc1ccc(N2CCOCC2)cc1)S(=O)(=O)c1ccc2c(c1)OCCO2	113	92	.	-12
NC(=O)c1c(NC(=O)c2ccc3c(c2)OCCO3)sc2c1CCC2	122	83	111	-6
COc1ccc(NC(=O)C2CCN(C(=O)c3ccc(-c4noc(C)n4)cc3)CC2)cc1OC	.	.	103	-28

Sorted by length of the SMILES (largest number first): some entries from above
SMILES	Sa growth inh	Sa growth inh second temp	GIV-Gai inh	HCMV UL50-53 inh
NC(=O)c1c(NC(=O)c2ccc3c(c2)OCCO3)sc2c1CCC2	122	83	111	-6
O=C(/C=C/c1ccc2c(c1)OCO2)Oc1ccc2c(c1)OCO2	114	91	.	-3
CCOCCc1nn2c(=O)cc(COC(=O)c3cccs3)nc2s1	102	101	109	.
CC(C)c1nnc2sc(COc3ccc(Br)cc3)nn12	.	.	103	-13
